Screening data as filed in PubChem BioAssay.
MARV entry inh: qHTS for inhibitors of binding or entry into cells for Marburg Virus; Marburg virus pseudotyped entry inhibition, cell reporter; control for the full effect not named in the record; about a third of the inactives were read at about 46 µM; Potency, µM (series often up to 37.8 µM), without a hit: at the top dose activity change, negative = inhibition, hits mostly inhibitors; 300,000 tested, 1.8% active; AID 540276, 2011; active = well fitted inhibition curve with a large enough effect; inconclusive = small, poorly fitted or top-dose-only effect, or effect the other way; inactive = flat fitted curve, though single readings scatter; tested in HEK293 cells; about a fifth of its hits are not listed in these tables; also: % is scaled to controls: 0 for no effect and ±100 for the full control effect; luciferase read-out
StopGo reporter: High Throughput Screening for Foot and Mouth Disease Virus Antivirals | human cells with a luciferase reporter of 2A StopGo recoding; control for the full effect not named in the record | AID 1159524, 2015 | Potency, µM (doses to about 57.9 µM), inactives show at the top dose signal change, negative = less light | 410,000 tested, 1.2% active; active = well fitted falling curve with a large enough effect; inconclusive = small, poorly fitted or top-dose-only effect; inactive = no such curve, though single readings can be large or run the other way; tested in HEK293T cells; also: % is scaled to controls: 0 for no effect and ±100 for the full control effect; nearly all actives have a fitted effect of over 45% in size; luciferase light after 4 h
RE007 growth inh: qHTS Assay for Inhibitors of the HIV-1 protein Vpr | 360,000 tested, 0.21% active | Potency, µM (titrated, usually from 92.2 µM), inactives show at the highest dose activity change, negative = less growth | AID 651644, 2012 | S. pombe RE007 Vpr strain, BacTiter-Glo ATP luminescence, 24 h; control for the full effect not named in the record; active = well fitted falling curve with a large enough effect; inconclusive = small, poorly fitted or top-dose-only effect; inactive = no such curve, though single readings can be large or run the other way;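 also: % is scaled to controls: 0 for no effect and ±100 for the full control effect; nearly all actives have a fitted effect of over 50% in size; the assay follows cell death caused by Vpr and the record does not say whether a fall means rescue or toxicity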
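Fission yeast strain RE007, carrying one chromosomally integrated HIV-1 vpr copy, was seeded at OD 0.01 in PMG+AL medium with 23 nL pinned compound. After 24 h at 30 °C and 99% humidity, viability was read by BacTiter-Glo luminescence.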
Cruzain inh Det: qHTS Assay for Promiscuous and Specific Inhibitors of Cruzain (with detergent); Cruzipain (Trypanosoma cruzi), P25779; purified cruzain, Z-FR-AMC fluorescence, 0.01% Triton; Potency, µM, for the others: max response, negative = inhibition, usual class: inhibitors; 200,000 tested, 0.43% active;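 also: plate controls were neutral wells for no effect and buffer without enzyme for full effect; nearly all actives have a fitted effect of over 40% in size; top concentration of the series not given in the record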
Target sequence (P25779 123-467 limits assumed): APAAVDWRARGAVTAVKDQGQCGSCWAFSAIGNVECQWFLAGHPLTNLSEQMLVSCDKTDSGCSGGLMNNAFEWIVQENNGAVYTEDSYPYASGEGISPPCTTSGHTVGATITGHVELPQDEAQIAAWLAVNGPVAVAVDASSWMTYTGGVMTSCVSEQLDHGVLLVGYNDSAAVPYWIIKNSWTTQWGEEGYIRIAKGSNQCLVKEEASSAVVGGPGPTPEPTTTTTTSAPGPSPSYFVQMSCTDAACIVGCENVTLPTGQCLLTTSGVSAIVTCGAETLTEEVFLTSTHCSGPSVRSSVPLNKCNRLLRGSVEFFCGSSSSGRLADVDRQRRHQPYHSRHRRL
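Sodium acetate buffer (100 mM, pH 5.5) containing 5 mM DTT and 0.01% Triton X-100 hosted 1.5 nM cruzain and test compound for 15 min at room temperature. Cleavage of 2 uM Z-FR-AMC was then tracked by fluorescence.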
SARS PLP yeast: qHTS of Yeast-based Assay for SARS-CoV PLP; S. cerevisiae expressing SARS-CoV PLpro, growth rescue; control for the full effect not named in the record; Potency, µM (top dose mostly 32.9 µM), for the others: top-dose activity, positive = growth rescue; 330,000 tested, 0.19% active; AID 485353, 2010; active means well fitted rising curve with a large enough effect; inconclusive means small, poorly fitted or top-dose-only effect; inactive means no such curve, though single readings can be large or run the other way; also: 0% is about no effect; nearly all actives have a fitted effect of over 55% in size; growth read by luminescence after 48 h
Cruzain inh noDet: qHTS Assay for Promiscuous and Specific Inhibitors of Cruzain (without detergent); Cruzipain (Trypanosoma cruzi), P25779; purified cruzain, Z-FR-AMC fluorescence, no detergent; Potency, µM, for inactives: max response, negative = inhibition, hits mostly inhibitors; 200,000 tested, 2.3% active;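 also: plate controls were enzyme without inhibitor for no effect and buffer without enzyme for full effect; nearly all actives have a fitted effect of over 40% in size; top concentration of the series not given in the record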
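Detergent-free condition (0.00005% Triton X-100) in acetate buffer pH 5.5 with DTT. 1.5 nM enzyme and compound were pre-mixed 15 min, then 2 uM Z-FR-AMC substrate added; reaction progress from fluorescence change between first and third reads (60 s).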
LASV entry inh: qHTS for Inhibitors of binding or entry into cells for Lassa Virus; 300,000 tested, 1.2% active; Lassa virus pseudotype entry inhibition, cell reporter; control for the full effect not named in the record; AID 540256, 2011; Potency, µM (series often up to 37.9 µM), for inactives: at the top dose activity change, negative = inhibition, most hits filed as inhibitors; active means well fitted inhibition curve with a large enough effect; inconclusive means small, poorly fitted or top-dose-only effect, or effect the other way; inactive means flat fitted curve, though single readings scatter; tested in HEK293 cells; also: % is scaled to controls: 0 for no effect and ±100 for the full control effect; nearly all actives have a fitted effect of over 50% in size; luciferase read-out
NS1 inh: qHTS Assay for Inhibitors of Influenza NS1 Protein Function. Potency, µM (titrated, usually from 46.1 µM), without a hit: at the highest dose activity, positive = more growth. S. cerevisiae slowed by influenza A NS1, growth recovery by OD600. 270,000 tested, 0.4% active. AID 2326, 2010; active means well fitted rising curve with a large enough effect; inconclusive means small, poorly fitted or top-dose-only effect; inactive means no such curve, though single readings can be large or run the other way; also: nearly all actives have a fitted effect of over 50% in size
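S. cerevisiae expressing influenza A NS1, grown in glucose, washed, then diluted 1:100 into pH 6.0 -URA galactose medium with 23 nl compound. Growth recovery read as OD600; NS1-free strain serves as control.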
* = called active by the depositor; ? = inconclusive; . = no result given; & = joins results of further samples; [ ] = another dose, or the depositor's remark. Unless noted, calls follow the shape of the dose curve; as a rule, active = well fitted curve in the direction sought with a large enough effect; inconclusive = small, poorly fitted or top-dose-only effect, or another doubt; inactive = no such curve, though single readings can be large; an effect the other way counts as inactive or inconclusive. Potency is read from the fitted curve at half-maximal effect.

(1) O=C(Nc1ccc(Cl)cc1)c1ccncc1
(2) COC(=O)CNS(=O)(=O)c1ccc(C)cc1
(3) CSCC[C@H](NC(=O)C(C)(C)Oc1ccc(Cl)cc1)c1nc2ccccc2[nH]1
(4) CC(=O)c1ccc(OCCn2c(SCC(=O)O)nc3ccccc32)cc1
(5) CN1CCN(c2nc3c(c(=O)n(C)c(=O)n3C)n2Cc2ccccc2F)CC1
(6) CCc1ccccc1NS(=O)(=O)c1ccc2nc(-c3ccccc3)[nH]c2c1
(7) Cc1cc2c(c(=O)o1)C(C1C=CCCC1)C(C#N)=C(N)O2 (stereo not drawn)
(8) C=CCOc1ccc(C(=O)Nc2ncn[nH]2)cc1

Assay by compound | 1 | 2 | 3 | 4 | 5 | 6 | 7 | 8
MARV entry inh | 0% | -2%[46.1 µM] | -11% | . | -2% | 0%[46.1 µM] | 24% | .
StopGo reporter | 43%[activator] | 0% | 42%[activator] | -14% | -22% | 6% | 4% | 26%
RE007 growth inh | -28% | 8% | 10% | 4% | -7% | . | 12% | -2%
Cruzain inh Det | 4.4% | 7.1% | -2.2% | . | . | -1.2% | 0.2% | .
SARS PLP yeast | . | -2% | 4% | -2% | 3% | . | 6% | 3%
Cruzain inh noDet | 4% | -5% | -16% | . | . | ? | -9% | .
LASV entry inh | 1% | -2% | 21% | . | -9% | 0%[46.1 µM] | 2% | .
NS1 inh | -25% | 2% | -8% | 1% | -2% | . | 6% | 14%

(9) OC(Cn1cccn1)c1ccccc1 (stereo not drawn)
(10) Cc1ccc(N2CC(C(=O)N3CCCCCC3)CC2=O)cc1 (stereo not drawn)
(11) CCC(C(=O)NCCc1c[nH]c2ccc(C)cc12)c1ccccc1 (stereo not drawn)
(12) COc1ccc(C2CC(c3ccccc3)=NN2C(=O)COC(=O)C2CC2)cc1 (stereo not drawn)
(13) CCOC(=O)c1c(C)c(C(=O)NCc2ccco2)c(C)n1Cc1ccccc1
(14) COc1cc2c(cc1C1NC(=S)NC(C)=C1C(N)=O)CCCC2 (stereo not drawn)
(15) CCc1ccc(C(=O)COC(=O)CNC(=O)Cc2ccccc2)cc1
(16) O=C(C1CCN(S(=O)(=O)c2cccc3nonc23)CC1)N1CCN(c2ccccc2F)CC1

Assay by compound | 9 | 10 | 11 | 12 | 13 | 14 | 15 | 16
MARV entry inh | ? | . | ? | -6% | -1% | . | 2% | .
StopGo reporter | 5% | 21% | -21% | -22% | 6% | 3% | 13% | -30%
RE007 growth inh | -9% | 17% | -8% | . | 5% | 2% | 1% | .
Cruzain inh Det | 4.1% | . | . | -7.6% | 3.0% | . | . | -2.4%
SARS PLP yeast | 4% | 1% | 0% | -13% | -1% | 2% | 2% | .
Cruzain inh noDet | -1% | . | . | 0% | -3% | . | . | 29%
LASV entry inh | -2% | . | ? | 11% | -6% | . | 10% | 3%[46.1 µM]
NS1 inh | 7% | 8% | -9% | -43% | 5% | 3% | -17% | .

(17) Cc1ccc(COCCN2CCN(S(=O)(=O)c3ccccc3)CCC2=O)cc1
(18) COC(=O)c1ccc(CSc2nnc3n(Cc4ccccc4OC)c(=O)c4ccccc4n23)o1
(19) O=C(O)CCCN=CC1=C(O)CNC1=O
(20) COc1cc(CN2CCCCCC2)cc(OC)c1OC
(21) N#CC(C(=O)NC1CCCCC1)=C1CCCCC1
(22) O=S(=O)(NCC(c1cccnc1)N1CCc2ccccc2C1)c1ccccc1 (stereo not drawn)
(23) COc1ccc(N(CC(=O)NN=C2CCN(C)CC2)S(=O)(=O)c2ccc(NC(C)=O)cc2)cc1
(24) CC(C)OC(=O)CN1CCN(S(=O)(=O)c2cc(Cl)ccc2Cl)CC1

Assay by compound | 17 | 18 | 19 | 20 | 21 | 22 | 23 | 24
MARV entry inh | . | 11%&-2% | ? | -9% | -16% | -3%[46.1 µM] | ? | ?
StopGo reporter | -23% | 1% | 0% | -13% | -4% | -11% | 1% | 0%
RE007 growth inh | -16% | 2% | 35% | -11% | -4% | 0% | 19% | -6%
Cruzain inh Det | . | -5.8% | . | . | 1.4% | . | . | -2.0%
SARS PLP yeast | -1% | 2% | 0% | 3% | 20% | 2% | 0% | 5%
Cruzain inh noDet | . | 2% | . | . | 3% | . | . | 0%
LASV entry inh | . | -19% | -3% | 3% | 4% | 22%[46.1 µM] | ? | -12%
NS1 inh | 1% | -16% | . | -9% | -9% | -10% | 8% | -14%

(25) O=C1CCc2ccc(OCCCCN3CCN(c4cccc(Cl)c4Cl)CC3)cc2N1
(26) Cc1cccc(S(=O)(=O)Nc2nc3ccccc3nc2Nc2cccc(C(=O)O)c2)c1
(27) COc1ccc(C)cc1NC(=O)c1c(C)oc2ncn(CC(C)C)c(=O)c12
(28) Cc1ccc(-n2nnnc2SCC(=O)NCC2CCCO2)cc1C (stereo not drawn)
(29) O=C(NCc1ccccc1)C(c1ccncc1)N(C(=O)c1csnn1)c1cccc(F)c1 (stereo not drawn)
(30) Nc1nc(N)nc(-c2ccccc2O)n1
(31) CCN1C(=O)[C@H]2[C@@H](c3ccc(Cl)cc3)N3C(=O)CN(CCOC)C(=O)[C@@]3(C)[C@H]2C1=O
(32) Cc1cccc(/C=N/NC(=O)Cc2cccs2)c1

Assay by compound | 25 | 26 | 27 | 28 | 29 | 30 | 31 | 32
MARV entry inh | . | . | . | 4% | ? | ? | . | 16%[46.1 µM]
StopGo reporter | 20µM* | -8% | 0% | 1% | 7% | 61%[activator] | 1% | 29%
RE007 growth inh | -11%[18.4 µM] | 5% | . | 12% | 1% | -4% | 6% | -22%
Cruzain inh Det | -2.2% | . | -6.5% | . | . | -1.2% | . | .
SARS PLP yeast | -22% | 5% | . | ? | 0% | -5% | -1% | -1%
Cruzain inh noDet | -2% | . | ? | . | . | -4% | . | .
LASV entry inh | . | . | -1%[46.1 µM] | -15%[46.1 µM] | 17% | 10% | . | 11%[46.1 µM]
NS1 inh | . | 9% | . | . | -10% | -7% | -3% | -3%

Complete entries, quoted from the list. Order of values: MARV entry inh	StopGo reporter	RE007 growth inh	Cruzain inh Det	SARS PLP yeast	Cruzain inh noDet	LASV entry inh	NS1 inh
Record of COc1ccc(C2CC(c3ccccc3)=NN2C(=O)COC(=O)C2CC2)cc1 (stereo not drawn) = -6%	-22%	.	-7.6%	-13%	0%	11%	-43%
Record of Cc1cccc(S(=O)(=O)Nc2nc3ccccc3nc2Nc2cccc(C(=O)O)c2)c1 = .	-8%	5%	.	5%	.	.	9%
Record of Cc1cccc(/C=N/NC(=O)Cc2cccs2)c1 = 16%[46.1 µM]	29%	-22%	.	-1%	.	11%[46.1 µM]	-3%
Record of C=CCOc1ccc(C(=O)Nc2ncn[nH]2)cc1 = .	26%	-2%	.	3%	.	.	14%

Later entries.
(33) C=CCN1c2ccccc2[C@]23C[C@@H](C(=O)OC)N(C(=O)c4ccc(Br)cc4)C2=NC(C(=O)OC)=C(C(=O)OC)[C@H]13
(34) Nc1ncnc(Oc2cccc3cccnc23)c1[N+](=O)[O-]
(35) O=S(=O)(NCCc1ccc(Cl)cc1)c1cccc2cccnc12
(36) CCOC(=O)COc1ccc(Br)cc1C1NC(=O)NC(C)=C1C(=O)NCc1ccccc1 (stereo not drawn)
(37) COc1ccc(-n2ncc(C(=O)NCCN3CCOCC3)c2C2CCN(C(=O)OC(C)(C)C)CC2)cc1
(38) COc1ccc(NC(=O)CN(C)C(=O)c2cc(-c3ccc(Cl)cc3)nc3ccccc23)cc1
(39) Cc1nn(Cc2ccccc2)c(C)c1C(=O)NCCN1C(=O)S/C(=C\c2ccc(F)cc2)C1=O
(40) COc1cccc(N2CCN(C(=O)CCS(=O)(=O)c3ccc4c(c3)CC(=O)N4C)CC2)c1

Assay by compound | 33 | 34 | 35 | 36 | 37 | 38 | 39 | 40
MARV entry inh | . | ? | . | 2% | . | ? | 9% | .
StopGo reporter | ? | -21% | 49%[activator] | -12% | 15% | -26% | -5% | 3%
RE007 growth inh | 1% | -22% | 11% | 0% | . | 1% | 7% | .
Cruzain inh Det | . | . | . | 15% | -0.3% | . | -3.2% | -1.0%
SARS PLP yeast | 1% | -3% | -2% | -10% | . | -3% | -11% | .
Cruzain inh noDet | . | . | . | 13% | -11% | . | -1% | 17%
LASV entry inh | . | -29% | . | -3% | -3%[46.1 µM] | ? | 11% | 0%[46.1 µM]
NS1 inh | -12% | 5% | -7% | -5% | . | . | 23% | .

(41) COc1cc(=O)[nH]c(SC(C)C(=O)Nc2ccc3ccccc3c2)n1 (stereo not drawn)
(42) O=C(O)c1ccc(N(c2ccccc2)c2ccccc2)cc1
(43) CCn1c(O)c(N=NC(=O)CNC(=O)/C=C/c2ccco2)c2ccccc21
(44) Cc1cc(Cl)c(S(=O)(=O)N2CCCC2)cc1OCC(N)=O
(45) Cc1cc(NC(=O)COc2nnc(-c3ccccc3)c3ccccc23)no1
(46) CC(C)Nc1nc2n(c(=O)n1)CCN2C(C)C
(47) CC(=O)Nc1nonc1-c1nnc(SCC(=O)Nc2ccc(C)cc2C)n1C
(48) CCOC(=O)CCNC(=O)N1CCCC(C(=O)c2cc(C)c(OC)c(C)c2)C1 (stereo not drawn)

Assay by compound | 41 | 42 | 43 | 44 | 45 | 46 | 47 | 48
MARV entry inh | 8%[46.1 µM] | -5% | -1% | . | ? | 18% | ? | -11%
StopGo reporter | 16% | -27% | . | ? | -14% | -18% | -8% | -17%
RE007 growth inh | -7% | -54% | -2% | 16% | 21% | -20% | . | 1%
Cruzain inh Det | . | -17% | -3.7% | . | -1.3% | -0.2% | -2.4% | .
SARS PLP yeast | -10% | -76% | -7% | 2% | 1% | ? | . | 1%
Cruzain inh noDet | . | -23% | -11% | . | -8% | -5% | 1% | .
LASV entry inh | 6%[46.1 µM] | -1% | -2% | 16% | ? | -4% | 14%[46.1 µM] | ?
NS1 inh | 6% | -3% | 8% | . | -11% | 5% | . | -15%
